CapD inh: Bacillus anthracis CapD inhibitors, primary screen, biochemical, fluorescence intensity. z-score (concentration not given with the values). CapD gamma-glutamyltranspeptidase (Bacillus anthracis Ames Ancestor). purified CapD enzyme, fluorescence intensity read-out; active compounds read low; some hits fall short of the stated cut. 140,000 tested, 0.23% active;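 active means z-score under -4 in either of two replicates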;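 further: stock transfer was 100 nL into about 40 µL; score is relative to mean and spread of the plate; one replicate is shown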
AID504770: growth inhibition of E. coli YBA685, primary screen, V. cholerae RctB inhibitors | E. coli YBA685 rctB-dependent plasmid, OD600 growth, 3 h; active compounds read low | 130,000 tested, 0.27% active | z-score (test concentration not listed) | AID 504770, 2011;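 active means z-score under -2 on both plates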;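 further: wells of about 30 µL received 100 nL stock; score is relative to mean and SD of the test wells; the first replicate is given; strong numbers were not always called active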
An asterisk follows results filed as active; x = not tested or not shown.

SMILES	CapD inh	AID504770
O=c1oc(CCCCc2nc3sc4c(c3c(=O)o2)CCCC4)nc2sc3c(c12)CCCC3	-0.2	x
CCCCCn1c(=O)c2ccccc2n2c(Cn3cc(S(=O)(=O)N4CCCC4)ccc3=O)nnc12	x	0.55
Cc1ccc(OCCOc2ccc(Cl)cc2C=C2C(=O)NC(=S)NC2=O)cc1	-0.54	x
O=C(CCN1C(=O)c2cccnc2Sc2ccccc21)NCc1ccc2c(c1)OCO2	1.1	0.35
Cc1ccc(C(=O)CCN2CCOCC2)c(C)c1	-0.91	x
N#Cc1c(NC(=O)CO/N=C/c2ccccc2Cl)oc(-c2ccccc2)c1-c1ccccc1	0.42	x
CC(C1CC2CCC1C2)n1c(SCC(=O)c2ccc[nH]2)nnc1-c1ccco1 (stereo not given)	x	-0.3
Cc1ccnc(N2C(=O)c3ccccc3C2Nc2ccc(Br)c(C)c2)c1 (stereo not given)	0.21	0.4
CSC(=NC=[N+](C)C)Nc1ccccc1F	-0.77	x
Cc1cc(=O)oc2cc(OC(=O)C(C)C)ccc12	65	1.1
COc1ccc(CN2CCCC(COC(=O)NC(C)c3cccc4c3OCCO4)C2)cc1F (stereo not given)	-1.1	x
O=c1c2ccccc2c2n[nH]c(O)c3ccc(=NC4CCCCC4)c1c32	22	-2
CC1(C)CC(=O)c2cc(C(=O)N3CCOCC3)c(=O)n(-c3ccccc3)c2C1	0.025	x
CCOC(=O)N/N=C/c1cn(-c2ccccc2)nc1-c1cc2ccccc2o1	x	-0.25
COc1cccc(-c2nc(-c3ccc(OC)c(OC)c3OC)[nH]c2-c2cccc(OC)c2)c1	42	x
Cn1nnc(-c2ccc(OCc3ccccc3F)cc2)n1	17	-0.25
COC(=O)C1=C(C(=O)OC)SC(=C2C(=S)C(C)(C)N(C(=O)CN3C(=O)CCC3=O)c3ccc(OC)cc32)S1	-0.41	x
O=C(Nc1cc(Cl)cc(Cl)c1)N1CCN(C(c2ccccc2)c2ccccc2)CC1	-0.18	x
N#Cc1cccc(Cn2nnc(-c3ccccc3)n2)c1	-0.03	-1.3
CCCn1c(=S)[nH]c2cnn(C)c2c1=O	0.26	-0.8
CCCN1CCN(C(=O)c2oc(=O)c3ccccc3c2-c2ccccc2)CC1	-0.26	-0.6
COc1ccc(C(=O)NCc2ccc3c(c2)CCO3)cc1	0.36	-1.7
CC1CCN(C(=O)C2c3ccccc3Oc3ccccc32)CC1	-0.35	2.5
O=C(Cc1ccccc1)Oc1ccc(N=Cc2cccs2)cc1	2	-1.4
COC(=O)c1ccc(Oc2nc(N3CCCCC3)nc(N3CCCCC3)n2)cc1	-0.2	0.2

Further records follow.
SMILES	CapD inh	AID504770
CC(C)n1c(C(F)(F)F)nc2ccccc21	x	-2.1
CC(Sc1ccccc1)C(=O)Nc1ccc(CC#N)cc1 (stereo not given)	-0.33	-0.8
O=C(COc1ccccc1F)OCCN1CCCC1	-0.48	-1.1
CCOC(=O)c1ccc(NC(=S)N2CCOCC2)cc1	0.17	x
CC1CN(C(=O)Cn2cc(SCC(N)=O)c3ccccc32)CC(C)O1 (stereo not given)	-0.74	0.85
Cc1ccc(C2CC(=O)Nc3sc(C(N)=O)c(N)c32)cc1 (stereo not given)	-0.52	-0.25
CSc1ccc2nnc(CCNC(=O)c3ccccc3)n2n1	x	-0.45
CC1C(=O)N(Cc2ccccc2F)c2ccccc2N1C(=O)c1ccc(F)cc1 (stereo not given)	-0.7	x
CN1c2ccccc2C(=O)/C(=C\Nc2ccc(F)cc2F)S1(=O)=O	-0.065	2.4
COc1ccc(CNC(=O)C2=Cc3sc(C)c(C)c3CS2)cc1	0.08	0.1
O=C(Nc1ccc(F)cc1F)c1cc(Cl)c(=O)n(Cc2ccccc2)c1	0.86	x
O=C(CN1CCN(Cc2ccccc2)CC1)NCCN1C(=O)S/C(=C\c2ccccc2Cl)C1=O	x	-0.4
NC(=O)c1ccccc1N=c1cc(-c2ccccc2)oc2ccc(Cl)cc12	4	-0.1
CCc1ccc(NC(=O)Cn2nc(C(F)(F)F)c3c2CCC3)cc1	-0.29	-0.3
O=C(c1nc(-c2ccc(Cl)cc2)n2c1CCCCC2)N1CCCC1	0.3	-0.85
CCOC(=O)c1c(C)c(C(=O)NCc2ccco2)c(C)n1C	x	0.05
COc1ccccc1CNC(=O)CN(c1ccccc1)C(C)C	x	-0.45
CCC(=O)Nc1cc(C(=O)O)ccc1C	0.045	-0.8
Ic1c(-c2ccccc2)noc1-c1ccccc1	-0.045	-0.45
CSc1nn(-c2ccccc2)cc1C(=O)Sc1cccs1	-0.44	-0.15
CCOC(=O)c1c(C)n(C2CCCCC2)c2ccc(O)cc12	-0.28	2.3
CC1(C)CC2(CCO1)Cc1ccccc1C2=O (stereo not given)	0.48	-0.3
O=C(Cc1c[nH]c2ccccc12)NCC(c1ccco1)N1CCCCC1 (stereo not given)	x	-0.45
Cc1ccc(S(=O)(=O)N2CCOCC2)cc1C(=O)NCC1CCCCC1	x	-0.25
O=C(Oc1ccc(OC(=O)c2ccccc2)cc1)c1ccccc1	-0.72	0.45

Single records, from the list above:
Profile of Cc1cc(=O)oc2cc(OC(=O)C(C)C)ccc12 = CapD inh: 65; AID504770: 1.1
Profile of CSC(=NC=[N+](C)C)Nc1ccccc1F = CapD inh: -0.77; AID504770: x
Profile of O=c1c2ccccc2c2n[nH]c(O)c3ccc(=NC4CCCCC4)c1c32 = CapD inh: 22; AID504770: -2

A second format for some results above:
Value order – CapD inh, AID504770
> COc1ccc(CNC(=O)C2=Cc3sc(C)c(C)c3CS2)cc1
    0.08, 0.1
> O=C(Nc1ccc(F)cc1F)c1cc(Cl)c(=O)n(Cc2ccccc2)c1
    0.86, x

Additional compounds
SMILES	CapD inh	AID504770
O=C(Nc1ccc(N2CCOCC2)cc1Cl)C1CCN(C(=O)OCc2ccccc2)CC1	-0.13	-1
O=S(=O)(Nc1cc(C(F)(F)F)ccc1N1CCCC1)c1ccc2c(c1)OCCCO2	x	1.6
Cc1cccc(N(CC(=O)Nc2c(C)n(C)n(-c3ccccc3)c2=O)S(=O)(=O)c2ccccc2)c1C	-0.17	x
COC(=O)c1cc(-c2ccccc2)on1	-0.77	1.5
C=CCn1c(=S)n(CC=C)c2ccccc21	31	-0.7
Nc1ccccc1C(=O)Nc1cc(C(=O)O)cc(C(=O)O)c1	31	0.3
NS(=O)(=O)c1ccc(NC(=O)CN2C(=O)S/C(=C\C(=O)Nc3ccc(F)cc3)C2=O)cc1	x	-1.6
O=C(OC(C(=O)NCc1cccs1)c1ccccc1Cl)c1ccco1 (stereo not given)	x	0.3
COc1ccc(N2CCN(S(=O)(=O)c3cccc4nsnc34)CC2)cc1	-0.22	x
Cc1ccc(COc2ccc(/C=C3/C(=N)N4C=CSC4=NC3=O)cc2Br)cc1	-0.73	0.15
O=c1cc(-c2ccc(F)cc2)oc2ccccc12	10	-0.45
CCOC(=O)Cc1csc(NS(=O)(=O)c2ccc(F)cc2F)n1	-0.055	x
CCOC(=O)C1=C(C)NC(C)=C(C(=O)OCC)C1C(=O)OCC(=O)c1cc(C)n(Cc2cccs2)c1C	x	-0.65
NNC(=O)CCCCn1c(=S)[nH]c2ccsc2c1=O	-1.3	1.4
O=S(=O)(NCc1c(F)cccc1F)c1cccc(Br)c1	0.3	x
COc1ccccc1-c1nnc(NC(=O)CCSc2ccccc2)o1	-0.02	0.15
Cc1cc(CNCC(c2ccco2)N2CCCCC2)c(C)n1-c1ccnn1C(C)C (stereo not given)	x	-0.55
CCN(CC)S(=O)(=O)c1cc(C(=O)OC(C)C(=O)NC2CC2)ccc1C (stereo not given)	x	-0.3
COc1ccccc1N1CCN(C2CCCC(C)C2)CC1 (stereo not given)	-0.11	-1.3
CC1CCCCN1c1nc(-c2ccc([N+](=O)[O-])cc2)nc2ccccc12 (stereo not given)	-0.09	x
CCCCCCCCN1/C(=C/C=C/c2n(CCCCCCCC)c3cc(Cl)c(Cl)cc3[n+]2CCCCC)N(CCCCC)c2cc(Cl)c(Cl)cc21	-0.68	x
Cc1ccc(C(=O)N(CC(C)C)C2CCS(=O)(=O)C2)cc1C (stereo not given)	x	1
COc1ccc(-n2nnnc2SCCCC(=O)c2ccccc2)cc1	x	-0.7
O=C(/C=C/c1cccs1)Oc1ccc2c(c1)OCO2	x	0.05
CCC(NCc1cccnc1)c1ccc(OC)c(OC)c1 (stereo not given)	0.73	-0.45

The listing continues.
SMILES	CapD inh	AID504770
O=C(NCC1CC1)NC(=O)c1c(Cl)cccc1Cl	0.24	-0.3
O=C(CS(=O)(=O)c1ccccc1)Nc1cccc(C(F)(F)F)c1	-0.48	1.6
O=C(C1Cc2ccccc2CN1S(=O)(=O)c1ccc(F)cc1)N1CCOCC1 (stereo not given)	-0.15	-1.4
O=C1C=CC(=O)c2c1ccc1c2ccc2ccccc21	-0.55	x
CN1C(=O)CCSc2ccccc21	x	-1
O=C(Nc1cccc(C(F)(F)F)c1)N1CCOC12CCCCC2	-0.35	-0.85
CC1=C(C#N)C(c2ccccc2)C(C#N)=C(C)N1	27	-0.6
CCNC(=O)c1cc2c(C)nn(-c3ccc(Cl)cc3)c2s1	x	0.7
O=S(=O)(NC1CCN(Cc2ccc3ccccc3c2)C1)c1cc(Cl)cc(Cl)c1 (stereo not given)	0.05	x
CCN(CC)CCNc1nc2ccccc2n1C	0.96	0
NC(N)=Nc1nc(CSCC/C(N)=N/S(N)(=O)=O)cs1	0.24	x
O=C(Cn1cnc2c(nnn2Cc2ccccc2F)c1=O)Nc1ccc2c(c1)OCCO2	-1.7	0.4
Cc1ccc(-c2nn3cnnc3c3ccccc23)cc1C	x	0.95
Cc1cc(C)n(C(=O)CNC(=O)c2ccc(Br)cc2)n1	0.045	-0.35
CC(C)CN(CC(C)C)S(=O)(=O)c1ccc(CCN2C(=O)c3cccnc3C2=O)cc1	0.3	-0.1
c1ccc(COc2ccc(CCC3OCCO3)cc2)cc1	-0.53	-0.15
CN(C)c1ccc(C(=O)N/N=C/C23CC[C@@H](O)CC2(O)CC[C@@H]2[C@@H]3CCC3(C)C(C4=CC(=O)OC4)CCC23O)cc1 (stereo not given in full)	-0.13	x
O=S(=O)(NCC1CCCCC1)c1ccc2c(c1)OCCO2	x	-0.25
COCCOC(=O)C1=C(C)NC2=C(C(=O)CC(c3ccccc3)C2)C1c1cc2c(cc1[N+](=O)[O-])OCO2 (stereo not given)	0.85	x
O=C(Nc1cccc(C(F)(F)F)c1)c1ccc2ccccc2c1	0.39	1.2
CCCNC(=O)c1ccccc1OC(C)=O	44	-1.3
O=C(Cn1cnc2ccccc2c1=O)c1c[nH]c2ccccc12	x	0.1
Nc1c(C(=O)O)sc(C(F)(F)F)c1-c1ccccc1	11	2.2
COc1cc(OC)c(NC(=O)CSc2nc3[nH]ncc3c(=O)n2-c2ccccc2OC)cc1Cl	-0.15	x
Cc1cc(=S)nc(-c2ccccn2)[nH]1	-0.045	-0.35

By substructure: the entries above with a nitro group on carbon.
SMILES	CapD inh	AID504770
CC1CCCCN1c1nc(-c2ccc([N+](=O)[O-])cc2)nc2ccccc12 (stereo not given)	-0.09	x
COCCOC(=O)C1=C(C)NC2=C(C(=O)CC(c3ccccc3)C2)C1c1cc2c(cc1[N+](=O)[O-])OCO2 (stereo not given)	0.85	x

Remaining list, next part:
SMILES	CapD inh	AID504770
Cc1sc2ncnc(Sc3ccccc3)c2c1C	0.075	-0.55
O=C(c1cnn(-c2ccccc2)n1)N1CCCC1c1nc2ccccc2s1 (stereo not given)	x	-0.3
O=C1C2SCCN2C(=S)N1c1cccc(C(F)(F)F)c1 (stereo not given)	-0.66	-0.8
COc1ccc(Cl)cc1NC(=O)CC(C)(C)CC(=O)O	0.14	-0.25
COc1ccc(OC)c(N2C(N)=C(C#N)C(c3ccc4c(c3)OCO4)C3=C2CC(C)(C)CC3=O)c1 (stereo not given)	1.7	x
O=C1/C(=C/c2ccc(Br)cc2)CCC/C1=C\c1ccc(Br)cc1	-0.45	x
COc1ccc(-c2noc(CN(C)C(C)=O)n2)cc1OC	x	-0.3
Cc1ccc(S(=O)(=O)Nc2ccccc2N=Cc2ccc[nH]2)cc1	-0.24	2
Cc1cc(C)c(C#N)c(SCC(=O)C(C)(C)C)n1	-0.36	1.5
COc1cccc(NC2=CC(=O)CC(C)(C)C2)c1	-1.1	0.5
CCOC(=O)C1C(=O)C=C(c2ccco2)CC1c1ccccc1 (stereo not given)	0.01	0.35
COc1cc(OC)nc(-c2cccs2)n1	-0.34	x
CCN(CC(=O)NC1CCCc2ccccc21)Cc1nc2ccccc2c(=O)[nH]1 (stereo not given)	x	1.6
O=C(CSc1nc2c(c(=O)n1-c1ccccc1)SCC2)NCC1CCCO1 (stereo not given)	-0.36	-0.3
CC(C)(C)OC(=O)NC(COC(=O)N1CCc2c([nH]c3ccccc23)C1)CC1CCCCC1 (stereo not given)	1.2	x
CCCN1CCC(N(C2CC2)S(=O)(=O)c2ccc(NC(C)=O)cc2)CC1	-0.43	x
Cc1cc(=O)oc2c1c(C)nn2CCO	-0.34	0.7
CCN(Cc1nc2ccccc2c(=O)[nH]1)Cc1nc2cc(C(F)(F)F)ccc2c(=O)[nH]1	x	-0.6
Cc1nc2cc(-c3sccc3-n3cccc3)[nH]n2c(=O)c1Cc1ccccc1	-0.33	x
Brc1cc(Br)cc(CN2CCOCC2)c1	-0.23	0.25
COC(=O)C1CCC2C3CC=C4CC(O)CCC4(C)C3CCC12C (stereo not given)	-0.39	-0.35

Quoted from the listing.
Reading of CCCN1CCC(N(C2CC2)S(=O)(=O)c2ccc(NC(C)=O)cc2)CC1 under CapD inh: -0.43
Reading of O=C(CSc1nc2c(c(=O)n1-c1ccccc1)SCC2)NCC1CCCO1 (stereo not given) under CapD inh: -0.36
